Source: PubChem BioAssay (several laboratories)
Mtb H37Rv: M. tuberculosis H37Rv growth inhibitors, H37Rv strain (AID 1626). M. tuberculosis H37Rv growth inhibition; higher % means a stronger effect. inhibition, % at 10 µM, or IC50 in µM where a hit was titrated. actives 0.95% (n = 220,000);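 active means confirmed in a dose series; inconclusive means inhibition above 80% but not taken into the dose series; inactive means below 80% or under 30% at every dose of the series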;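 further: bacteria incubated seven days before Alamar blue readout; 0% = bacteria only wells and 100% = bacteria with antibiotic wells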
Mtb betalactam: beta-lactam sensitization of Mtb H37Rv, H37Rv | M. tuberculosis H37Rv growth with meropenem, percent inhibition; hits of this screen are not shown here | inhibition, % at 25 µM | actives 0.27% (n = 330,000);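 active means about 74% or more and at least 40 points above the plate without the antibiotic, then above 30% in a dose series; inconclusive means first-round hits that could not be retested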;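 further: growth measured after seven days incubation then overnight dye step; 0% = bacteria only wells and 100% = bacteria with antibiotic; twin plates without the antibiotic show which effects depend on it; some results filed as inactive read as strong as hits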
Arbovirus anti: antivirals against arbovirus infection, primary screen, cell-based, full library, 10K replicate subset; arbovirus infection cell-based antiviral screen; inhibition, % at 10 µM; actives 0.37% (n = 200,000); AID 1251, 2008;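 active means inhibition from about 30%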;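 further: bluetongue infection of BSR cells; cell survival read as ATP light after 72 h; 0% = infected wells without compound and 100% = uninfected wells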
RecA intein inh: Mtb RecA intein splicing inhibitors, primary screen, biochemical, fluorescence, HTS | AID 2221, 2009 | inhibition, %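 (about 9 µM by stock and volumes)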 | cell-free RecA intein splicing | actives 0.75% (n = 290,000); in the data active means inhibition above about 30%; inconclusive means no clear call, values can overlap the other calls;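 further: 0% = vehicle wells and 100% = reference inhibitor control wells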
Target sequence (P9WHJ3 whole entry, looked up): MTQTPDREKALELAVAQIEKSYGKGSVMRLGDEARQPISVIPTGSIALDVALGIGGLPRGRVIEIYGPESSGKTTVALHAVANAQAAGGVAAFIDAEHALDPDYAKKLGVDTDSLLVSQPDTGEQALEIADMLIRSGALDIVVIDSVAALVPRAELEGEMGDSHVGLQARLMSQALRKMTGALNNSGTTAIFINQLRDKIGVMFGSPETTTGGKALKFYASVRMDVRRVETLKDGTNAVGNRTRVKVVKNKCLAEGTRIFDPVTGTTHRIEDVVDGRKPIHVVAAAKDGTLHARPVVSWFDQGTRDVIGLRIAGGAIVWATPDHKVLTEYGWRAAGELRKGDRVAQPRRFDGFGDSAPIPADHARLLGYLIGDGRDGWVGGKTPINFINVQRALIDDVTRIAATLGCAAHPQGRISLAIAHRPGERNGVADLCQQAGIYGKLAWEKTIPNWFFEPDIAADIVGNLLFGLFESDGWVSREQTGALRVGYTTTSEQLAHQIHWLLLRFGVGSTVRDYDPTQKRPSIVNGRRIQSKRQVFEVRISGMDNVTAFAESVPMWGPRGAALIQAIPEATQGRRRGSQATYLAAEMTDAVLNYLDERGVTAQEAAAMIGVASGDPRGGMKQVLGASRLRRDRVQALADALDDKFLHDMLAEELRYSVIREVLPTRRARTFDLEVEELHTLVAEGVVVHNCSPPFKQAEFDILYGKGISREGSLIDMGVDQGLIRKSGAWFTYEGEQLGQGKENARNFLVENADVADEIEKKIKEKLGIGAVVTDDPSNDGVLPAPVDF
YopH inh: YopH tyrosine phosphatase inhibitors, primary screen, biochemical, fluorescence Ex485/Em525; YopH tyrosine phosphatase [Yersinia enterocolitica]; inhibition, %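 (about 10 µM by stock and volumes)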; actives 0.16% (n = 140,000);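 active means inhibition of 50% or more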;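 further: controls were vehicle for no effect and minimum signal wells for full effect; inactives centre near -20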
Arbovirus anti repeat: also measured in Arbovirus anti; calls as there; inhibition, %; measured here: 10K subset replicate screen; many hits read low in the repeat;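 first of two repeat runs on a subset; 0% = infected and 100% = uninfected wells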
Active calls of the source: *; ? = inconclusive; . = no result given; & = joins results of further samples.

Sample of the layout, 4 compounds:
SMILES	Mtb H37Rv	Mtb betalactam	Arbovirus anti	RecA intein inh	YopH inh	others
Fc1ccc(-c2nnc(CSc3nnc(-c4cccs4)o3)o2)cc1	>100µM*	97	7	-1.0	-23
CCCCOc1ccc(C2(C)CC(=O)NC2=O)cc1 (stereo not given)	8%	-9	2	-1.3	-20	Arbovirus anti repeat=-3
CCN(CC)c1ccc(NC(=O)c2nc3nc(C)cc(C(F)F)n3n2)cc1	3%	-4	-9	-0.3	-33	Arbovirus anti repeat=-4
COc1ccc(C(=O)CC(c2ccccc2)C2C(=O)CCCC2=O)cc1 (stereo not given)	-7%	0	12	-3.3	-7

This part in full, repeating the preview:
SMILES	Mtb H37Rv	Mtb betalactam	Arbovirus anti	RecA intein inh	YopH inh	others
Fc1ccc(-c2nnc(CSc3nnc(-c4cccs4)o3)o2)cc1	>100µM*	97	7	-1.0	-23
CCCCOc1ccc(C2(C)CC(=O)NC2=O)cc1 (stereo not given)	8%	-9	2	-1.3	-20	Arbovirus anti repeat=-3
CCN(CC)c1ccc(NC(=O)c2nc3nc(C)cc(C(F)F)n3n2)cc1	3%	-4	-9	-0.3	-33	Arbovirus anti repeat=-4
COc1ccc(C(=O)CC(c2ccccc2)C2C(=O)CCCC2=O)cc1 (stereo not given)	-7%	0	12	-3.3	-7
C=CCn1cc(/C=N/N2C(=O)C3C4C=CC(C4)C3C2=O)c2ccccc21 (stereo not given)	1%	-2	-6	1.9	.
CC1=CC(C)(C)n2c(O)c(N=NC(N)=S)c3cc(C)cc1c32	3%	-4	-4	0.4	4
CCc1noc(C)c1C(=O)Nc1nc2ccc(S(C)(=O)=O)cc2s1	.	-9	.	-5.6	.
O=C1NC(=O)c2cc(NC(=O)C3CCCO3)ccc21 (stereo not given)	1%	2	7	-2.2	10
CC(=O)Cc1nsc(NC(=O)c2ccc(-c3ccc(Cl)c(C(F)(F)F)c3)o2)n1	0%	-4	.	.	.
N#C/C(=C\c1ccc(OCc2ccc(Cl)cc2)cc1)C(=O)Nc1cccc(C(=O)O)c1	.	48	.	7.8	.
CC1=NN2C(=N)/C(=C\c3cc(C)n(-c4cccc(C)c4)c3C)C(=O)N=C2S1	-1%	-1	.	-4.0	.
CCCS(=O)(=O)N1CCCC(C(=O)N2CCN(C(=O)OCC)CC2)C1 (stereo not given)	1%	-1	5	-1.5	-40
COc1cc(C)cc2oc(=O)c(CC(=O)N3CCN(C(=O)C4COc5ccccc5O4)CC3)c(C)c12 (stereo not given)	.	37	.	-3.7	.
COc1c(C)cc(C(=O)C2CCCN(C(=O)c3snnc3C)C2)cc1C (stereo not given)	6%	-6	1	-1.2	.
COc1ccccc1N(CC(=O)NC1CCCC1)C(=O)c1cnn(C(C)C)c1	-4%	-4	2	-1.2	-19
Clc1ccccc1-c1nc(-c2ccncc2)no1	-3%	-1&0	.	1.0&11	.
O=C(COC(=O)c1ccccc1)Nc1ccccc1N1CCOCC1	-5%	-5	3	2.4	-5
Cc1cc2cc(CCNC(=O)c3ccc(S(=O)(=O)N4CCOCC4)cc3)c(=O)[nH]c2cc1C	-10%	-4	-6	-0.9	-40
O=C(Nc1ccccc1Br)C1CC(=O)N(c2ccc3c4c(cccc24)CC3)C1 (stereo not given)	9%	4	-5	2.7	-19
CC(C)C[C@H](N)c1nnc(S(=O)(=O)Cc2cccc(F)c2)o1	3%	-3	1	22	-20
OCC1(Cc2cccc(Cl)c2)CCCN(Cc2ccc3cc(F)ccc3n2)C1 (stereo not given)	-12%	24	-12	6.6	.
CSc1nc(N(C)CCO)c2sc3nc(-c4ccco4)c4c(c3c2n1)CCC4	-3%	-3	-7	9.4	-10
CCc1nc2ccc(C(=O)Nc3nnc(C)s3)cc2nc1CC	9%	-1	5	-1.5	.
Cc1cccc(NC(=O)CN2CCOCC2)c1C	.	-2	.	-0.2	.
Cc1nnc(SCC(=O)NC2CC2)s1	.	-19	.	-1.0	.
O=C(NN=C1CCCCC1)c1ccccc1OCc1ccc(F)cc1	2%	-4	-6	5.8	-22
CCN(CC)C(=O)C1CCCN(c2ccc([N+](=O)[O-])cc2/C=N/NC(=O)c2ccc([N+](=O)[O-])cc2)C1 (stereo not given)	.	3	7	-0.8	-28
CCCCOc1ccc(C(=O)Nn2cnnc2)cc1	1%	-7	0	-1.4	-9
Cc1nn(Cc2ccccc2)c(Cl)c1/C=C/C(=O)OCC(=O)NC(C)C(C)C (stereo not given)	-2%	-1	-9	-2.1	.
COC(=O)c1ccc(C(=O)OC)c(NC(=O)CSc2cccc[n+]2[O-])c1	?	?	5	3.1	6
CCOc1ccc2[nH]c(=O)c(CN(Cc3ccco3)C(=O)c3ccc(Br)cc3)cc2c1	6%	.	4	2.7	-19
Cc1ccc2nc(-c3ccc(SCC(=O)Nc4cc(C)on4)nc3)[nH]c2c1	30%	99	2	0.1	-44
CCOC(=O)/C(C)=N/NC(=O)c1cccc([N+](=O)[O-])c1	-3%	66	-5	-0.1	.
O=C1CN(C(=O)CSc2nnc3ccccn23)c2ccccc2N1	-4%	-4	-4	-4.2	-22
CN1CCC=C(C(=O)N2c3ccccc3Sc3ccc(Cl)cc32)C1	.	-10	.	15	.
CCN(CC)S(=O)(=O)c1ccc(NC(=O)COC(=O)c2ccc(NC(=O)CC#N)cc2)cc1	-3%	-4	-4	7.8	.
Cn1c(SCC(=O)NNC(=O)c2ccccc2O)nnc1-c1ccccc1	.	9	.	1.4	.
COc1cc(-c2cc(C(F)(F)F)n3ncc(C(=O)O)c3n2)cc(OC)c1OC	-8%	-2	9	-4.4	-43
COC(=O)CN1C(=O)COc2ccc(S(=O)(=O)NCc3ccc(F)cc3)cc21	.	5	.	0.1	.
COCCNC(=S)N(CCc1c(C)[nH]c2ccc(Cl)cc12)Cc1cccs1	32%	66	-27	17	.
CCCC(=O)N=c1sc2cccc(F)c2n1C	-1%	-3	9	0.1	.	Arbovirus anti repeat=3
COc1ccc(-c2nnc3ccc(SCC(=O)Nc4nc5ccc(C)cc5s4)nn23)cc1OC	5%	-3	11	-0.2	-33
COc1cc(OC)c(C(=O)CCC(=O)O)cc1OC	-5%	5	5	-2.4	-33
O=C(C1CCN(S(=O)(=O)c2cccc3nsnc23)CC1)N1CCCCC1	.	0	.	-3.5	.
Nc1nonc1-c1noc(COc2ccccc2Cl)n1	5%	9	-36	-0.8	-24
C(=C\c1ccccc1)/CNn1cnnc1	-1%	-1	2	-1.5	-21
COc1ccc(NC(=O)C(=S)NC2CCCCC2)cc1	4%	-2	-2	1.8	.
O=C(CCc1ccccc1)Nc1cc2c3c(c1)CC(=O)N3CCC2	.	-1	.	15	.

The last 4 entries of the section above come first, to join the parts.
SMILES	Mtb H37Rv	Mtb betalactam	Arbovirus anti	RecA intein inh	YopH inh	others
Nc1nonc1-c1noc(COc2ccccc2Cl)n1	5%	9	-36	-0.8	-24
C(=C\c1ccccc1)/CNn1cnnc1	-1%	-1	2	-1.5	-21
COc1ccc(NC(=O)C(=S)NC2CCCCC2)cc1	4%	-2	-2	1.8	.
O=C(CCc1ccccc1)Nc1cc2c3c(c1)CC(=O)N3CCC2	.	-1	.	15	.
CCN1CCN(c2ccc(S(=O)(=O)N3CCOCC3)cc2NC(=O)c2ccccc2SC)CC1	.	-2	.	-2.1	.
Cc1cc(N2CCN(c3ccc(F)cc3)CC2)n2ncnc2n1	0%	7	.	0.9	.
COc1cc(/C=N/N2CCN(Cc3ccc(Cl)cc3)CC2)cc(Br)c1O	.	9	.	-3.4	.
Cc1ccc(NCCC(=O)c2cccs2)cc1C	75%	100	-4	2.4	.
Cc1ccccc1C(=O)NC(C)C1CC2CCC1C2 (stereo not given)	.	8	.	0.1	.
Cc1cc(=O)oc2cc(NC(=O)c3ccccc3C(=O)O)ccc12	.	1	.	0.1	.
Cc1cc(NC(=O)CSc2nnc(Nc3ccccc3F)s2)no1	7%	-3	-2	.	.
Cc1c(NS(=O)(=O)CC23CCC(CC2=O)C3(C)C)c(=O)n(-c2ccccc2)n1C (stereo not given)	-7%	-2	10	.	-44	Arbovirus anti repeat=4
CCc1cccc(NC(=O)CCNS(=O)(=O)c2ccc3[nH]c(=O)oc3c2)c1	.	2	.	-2.2	.
Cc1[nH]c(=S)sc1Cc1ccc(F)cc1	7%	0	-5	-0.1	-8
CCCCS/C(N)=N/N=C/c1cc(C)ccc1O	3%	100	27	-7.7	-23
O=C(Cc1ccccc1)Nc1cc(Cl)ccc1Sc1ccccc1	7%	6	-1	-1.5	-18
O=C(O)c1ccccc1C(=O)c1cccs1	-10%	-11	1	0.0	-17	Arbovirus anti repeat=5
CCCCOCCCNC(=O)N[C@H](C(=O)O)C(C)CC (stereo not given in full)	-11%	-1	.	0.9	.
COc1ccc(OC)c2[nH]c(C(=O)O)cc12	-4%	-6	4	1.1	-32
CC(C)CCn1c(SCC(=O)Nc2ccccc2C(F)(F)F)nc2nccnc2c1=O	.	3	.	-0.6	.
O=C(NC1CCCCC1)C1CC(=O)N(CCc2ccccc2)C1 (stereo not given)	-15%	-4	18	-1.1	0
CCOc1ccc(-c2nc(N)nc(C)c2-c2ccc(OC)c(OC)c2)c(O)c1	0%	-4	0	.	-57
CC(C)=C1C(=O)NN(c2cccc(Cl)c2)C1=O	74%	8	-42	4.2	-39
CCC(C)NC(=O)C1CCN(C(=O)N(C)C)CC1 (stereo not given)	0%	-1	15	.	-30
COc1ccc(C(=O)CSc2nnc(Cc3ccccc3)o2)cc1	6%	13	0	-6.9	-42
Cc1nccn1CC(=O)O	-10%	3	.	3.6	.
Cc1cc(OCC(=O)Nc2cc(C(C)(C)C)on2)ccc1[N+](=O)[O-]	.	-11	.	1.3	.
CC(OC(=O)C1COc2ccccc2O1)C(=O)N(C)c1ccccc1 (stereo not given)	5%	1	4	-3.3	.
COc1ccc(C(=O)Nc2ccc(-c3n[nH]c(=S)o3)cc2)cc1OC	.	0	.	2.1	.
CCOC(=O)C1(CCOc2ccccc2)CCN(C(C)CSC)CC1 (stereo not given)	.	-1	.	-1.8	.
COC(=O)c1cc(C(=O)NCCN2C(=O)S/C(=C\c3cccs3)C2=O)cc([N+](=O)[O-])c1	-3%	0	-11	9.7	19
CCOc1ccc(-c2nc(C)sc2CC(=O)O)cc1	-7%	-2	12	-2.1	-25
CC(=O)N1Cc2cc(N)ccc2Oc2ccccc21	-10%	0	4	2.4	.
Cc1ccc(/C=C/C(=O)OCC(=O)NCCN2C(=O)CSC2=O)cc1	3%	0	0	1.1	.
CCNc1ccc(C(=O)OCC(=O)N2CCCC2)cc1[N+](=O)[O-]	.	-6	.	0.3	.
COc1ccc(C(=O)N/N=C(\C)CC(=O)N2CCN(C=O)CC2)cc1	-4%	2	1	23	-34
CCc1nc2ccccc2c(C(=O)OCc2nnc(-c3ccccc3)o2)c1C	.	-11	4	0.0	-12
CCOC(=O)N1CN(C(=O)OCC)CN(C(=O)OCC)C1	16%	12	.	-4.2	.
COc1cc(/C=C2/C(=N)N3N=C(CC(=O)N4CCOCC4)SC3=NC2=O)ccc1OC(C)c1ccccc1 (stereo not given)	.	4	.	5.5	.
O=C1NC2(Nc3ccccc31)C(=O)Nc1ccc(Br)cc12 (stereo not given)	5%	11	-1	-6.3	.
CC(C)(C)NC(=O)CN(Cc1cccs1)C(=O)CCN1CCc2ccccc21	4%	-4	-2	.	.
O=C(N1CCCCC1)N1CCN(S(=O)(=O)c2ccccc2)CC1	.	3	.	-0.7	.
Cc1nc2sccn2c(=O)c1S(=O)(=O)N1CCN(c2cccc(Cl)c2)CC1	.	-6	.	-2.1	.
COc1ccc(OC)c(N(CC(=O)NCCSC2CCCCC2)S(=O)(=O)c2ccccc2)c1	.	-10	.	0.6	.
COc1ccc(OC)c(C2=NOC(C(=O)Nc3cc(C)on3)C2)c1 (stereo not given)	8%	-4	.	0.9	.
O=c1c2c(ncn1Cc1ccccc1)nc1n2CCC1	-5%	-2	-1	-3.4	-28
COc1cc(-c2noc(C)c2-c2ccc(N(C)C)nc2)cc(OC)c1OC	.	-1	.	1.0	.
COc1ccc(CNC(=S)Nc2ccc(S(N)(=O)=O)cc2)cc1	5%	-3	0	0.9	.
CCC(=O)Nc1ccc(Cl)c(NC(=O)C(C)C)c1	-4%	11	2	-2.6	-16
CCCc1nnc(SCC(=O)Nc2cc(C)on2)n1CCOC	.	-5	.	-0.1	.
CC(C)OC(=O)c1ccc(S(N)(=O)=O)o1	1%	-5	-6	0.4	-7
Cc1ccccc1CCNC(=O)C1CCC(=O)N(C2CCCCCC2)C1 (stereo not given)	.	-6	.	0.5	.

The list is partial; count on the stated rates, not on these rows.
